MARV entry inh: Marburg virus entry inhibition; 300,000 tested, 1.8% active; AID 540276; Potency, µM (doses to about 37.8 µM), for inactives: at the highest dose activity change, negative = inhibition, actives largely listed as inhibitors; Marburg virus pseudotyped entry inhibition, cell reporter; control for the full effect not named in the record; about a third of the inactives were read at about 46 µM; active = well fitted inhibition curve with a large enough effect; inconclusive = small, poorly fitted or top-dose-only effect, or effect the other way; inactive = flat fitted curve, though single readings scatter; tested in HEK293 cells; about a fifth of its hits are not listed in these tables; note: % is set by controls: 0 for no effect and ±100 for the full control effect; luciferase read-out
LASV entry inh: inhibitors of Lassa virus binding or cell entry; 300,000 tested, 1.2% active; Potency, µM (doses to about 37.9 µM), for the others: top-dose activity change, negative = inhibition, usual class: inhibitors; AID 540256; Lassa virus pseudotype entry inhibition, cell reporter; control for the full effect not named in the record; active means well fitted inhibition curve with a large enough effect; inconclusive means small, poorly fitted or top-dose-only effect, or effect the other way; inactive means flat fitted curve, though single readings scatter; tested in HEK293 cells; note: % is set by controls: 0 for no effect and ±100 for the full control effect; nearly all actives have a fitted effect of over 50% in size; luciferase read-out
Cruzain noTriton: blocks cruzain activity in detergent-free assay; P25779; purified cruzain, Z-FR-AMC fluorescence, no detergent; Potency, µM, inactives show max response, negative = inhibition, usual class: inhibitors; 200,000 tested, 2.3% active; AID 1476;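 note: plate controls were enzyme without inhibitor for no effect and buffer without enzyme for full effect; nearly all actives have a fitted effect of over 40% in size; top concentration of the series not given in the record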
Target sequence (P25779 123-467 limits assumed): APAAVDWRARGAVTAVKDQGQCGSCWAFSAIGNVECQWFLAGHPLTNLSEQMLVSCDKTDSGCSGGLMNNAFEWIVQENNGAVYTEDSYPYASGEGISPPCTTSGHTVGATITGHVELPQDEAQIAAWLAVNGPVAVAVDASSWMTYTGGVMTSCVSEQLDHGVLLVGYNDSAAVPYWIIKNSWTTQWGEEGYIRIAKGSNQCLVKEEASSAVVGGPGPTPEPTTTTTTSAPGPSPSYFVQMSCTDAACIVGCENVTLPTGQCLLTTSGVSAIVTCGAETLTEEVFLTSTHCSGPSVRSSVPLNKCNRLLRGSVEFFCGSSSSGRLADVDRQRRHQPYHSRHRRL
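Purified cruzain at 1.5 nM, pre-incubated 15 min with compound at room temperature in 100 mM sodium acetate pH 5.5, 5 mM DTT, 0.00005% Triton X-100. Reaction started with 2 uM Z-FR-AMC; AMC fluorescence increase over 60 s gives rate.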
NS1 inh: blocks influenza NS1 protein function; S. cerevisiae slowed by influenza A NS1, growth recovery by OD600; Potency, µM (titrated, usually from 46.1 µM), inactives show top-dose activity, positive = more growth; 270,000 tested, 0.4% active; AID 2326; active means well fitted rising curve with a large enough effect; inconclusive means small, poorly fitted or top-dose-only effect; inactive means no such curve, though single readings can be large or run the other way; note: nearly all actives have a fitted effect of over 50% in size
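Growth recovery, yeast-based: influenza A NS1 expressed in S. cerevisiae causes slow growth, and suppressors are detected by OD600. The parent strain without NS1 is used as positive control.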
Cruzain inh Det: inhibitors of Trypanosoma cruzi cruzain with detergent; P25779; purified cruzain, Z-FR-AMC fluorescence, 0.01% Triton; Potency, µM, without a hit: max response, negative = inhibition, actives largely listed as inhibitors; 200,000 tested, 0.43% active; AID 1478;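 note: plate controls were neutral wells for no effect and buffer without enzyme for full effect; nearly all actives have a fitted effect of over 40% in size; top concentration of the series not given in the record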
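Steps: dispense cruzain (1.5 nM final) in acetate buffer pH 5.5 with DTT and 0.01% Triton X-100; pin-transfer compounds; incubate 15 min RT; add Z-FR-AMC (2 uM final); read fluorescence every 30 s, using the 60 s intensity change.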
SARS PLP yeast: blocks SARS-CoV papain-like protease in a yeast assay. Potency, µM (series often up to 32.9 µM), for the others: at the highest dose activity, positive = growth rescue. S. cerevisiae expressing SARS-CoV PLpro, growth rescue; control for the full effect not named in the record. 330,000 tested, 0.19% active; active means well fitted rising curve with a large enough effect; inconclusive means small, poorly fitted or top-dose-only effect; inactive means no such curve, though single readings can be large or run the other way; note: 0% is about no effect; nearly all actives have a fitted effect of over 55% in size; growth read by luminescence after 48 h
2A StopGo: lowers the luciferase signal of an FMDV 2A StopGo reporter; 410,000 tested, 1.2% active; Potency, µM (highest dose often 57.9 µM), inactives show top-dose signal change, negative = less light; human cells with a luciferase reporter of 2A StopGo recoding; control for the full effect not named in the record; active = well fitted falling curve with a large enough effect; inconclusive = small, poorly fitted or top-dose-only effect; inactive = no such curve, though single readings can be large or run the other way; tested in HEK293T cells; note: % is set by controls: 0 for no effect and ±100 for the full control effect; nearly all actives have a fitted effect of over 45% in size; luciferase light after 4 h
RE007 growth inh: less growth of the S. pombe RE007 Vpr strain; AID 651644; 360,000 tested, 0.21% active; Potency, µM (highest dose often 92.2 µM), without a hit: at the top dose activity change, negative = less growth; S. pombe RE007 Vpr strain, BacTiter-Glo ATP luminescence, 24 h; control for the full effect not named in the record; active = well fitted falling curve with a large enough effect; inconclusive = small, poorly fitted or top-dose-only effect; inactive = no such curve, though single readings can be large or run the other way;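 note: % is set by controls: 0 for no effect and ±100 for the full control effect; nearly all actives have a fitted effect of over 50% in size; the assay follows cell death caused by Vpr and the record does not say whether a fall means rescue or toxicity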
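Fission yeast strain RE007, carrying one chromosomally integrated HIV-1 vpr copy, was seeded at OD 0.01 in PMG+AL medium with 23 nL pinned compound. After 24 h at 30 °C and 99% humidity, viability was read by BacTiter-Glo luminescence.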
* marks the source's active call; other numbers are inactive results; ? = inconclusive; . = no result given; & = joins results of further samples; [ ] = remark or other dose. Unless noted, calls come from the whole dose curve; as a rule, active = well fitted curve in the direction sought with a large enough effect; inconclusive = small, poorly fitted or top-dose-only effect, or another doubt; inactive = no such curve, though single readings can be large; an effect the other way counts as inactive or inconclusive. Potency is the fitted concentration of half-maximal effect.

SMILES	MARV entry inh	LASV entry inh	Cruzain noTriton	NS1 inh	Cruzain inh Det	SARS PLP yeast	2A StopGo	RE007 growth inh
COC(=O)c1ccc(NC(=O)CSc2nnc(Cc3cccn3C)n2-c2ccc(F)cc2)cc1	-14%&-14%	-12%	?	-39%	-5.2%	-7%	0%	2%
O=S(=O)(c1ccccc1)c1nc(-c2ccccc2)oc1NCCCN1CCOCC1	-6%	?	.	-3%	.	-3%	12%	4%
CCCNC(=O)COC(=O)CCC(=O)c1ccc(F)cc1	8%	21%	2%	3%	-0.3%	4%	6%	-1%
O=C(CSCc1ccc(Br)cc1)N1CCCC1	.	.	.	2%	.	14%	27%	-3%
CC(=O)NS(=O)(=O)c1ccc(N)cc1	-5%&-5%&-5%&-5%&-5%&-5%&-5%&-5%&-5%&-5%	-8%	1%&-4%&5%&3%	?	0.6%&0.1%&5.5%&0.3%	0%	-25%&-17%&3%	11%
C/C(=N\NC(=O)c1ccc(Cn2cc(Br)cn2)o1)c1cccc(NC(=O)C(C)(C)C)c1	?	14%	?	-10%	-4.9%	10%	-9%	25%
Cc1cccc2c(N=NC(=O)C(C)n3cnc4ccccc4c3=O)c(O)[nH]c12 (stereo unspecified)	4%[46.1 µM]	0%	.	.	.	.	14%	20%
Cc1ccc(C(=O)Nc2cccc(C(=O)N/N=C/c3ccc(F)cc3)c2)cc1	-15%[46.1 µM]	-18%[46.1 µM]	.	14%	.	18%	8%	3%
O=[N+]([O-])c1ccc(Cl)c(S(=O)(=O)n2ccnc2)c1	.	.	.	-4%	.	0%	-6%	8%
COc1ccc(-c2ccc3c(N)c(C(=O)Nc4cccc(C)c4)sc3n2)cc1	22%[46.1 µM]	19%[46.1 µM]	?	.	-20%	.	24%	.
CCCCCn1cnnc1SCC(=O)c1c(N)n(C2CC2)c(=O)[nH]c1=O	19%	?	.	.	.	-3%	-27%	-18%
O=C(C(c1ccccc1)c1ccccc1)N1CCN(CCN2C(=O)c3cccc4cccc(c34)C2=O)CC1	5%	-4%	6%	-7%	-5.0%	-2%	?	19%
Cc1cc(C)c(S(=O)(=O)Nc2cccc(-n3cnnn3)c2)c(C)c1	.	.	.	6%	.	0%	12%	-17%
CC(C)C(NC(=O)C(NC(=O)C1OC2OC(C)(C)OC2C2OC(C)(C)OC12)C(C)C)C(=O)O (stereo unspecified)	-8%[46.1 µM]	10%	.	0%	.	1%	11%	-22%
CCOc1ccc(-n2c(C)c(C(=O)O)c3cc(OC)ccc32)cc1	6.3µM*	?	.	5%	.	-1%	-2%	0%
CCCC(C)NC(=O)COC(=O)c1cccc(NS(C)(=O)=O)c1 (stereo unspecified)	.	.	.	1%	.	1%	-16%	9%
CC(O)CNC(=O)C1CCN(Cc2ccc(OCc3ccccc3)cc2)CC1 (stereo unspecified)	?	-4%	0%	-11%	0.0%	1%	7%	-2%
CCOC(=O)c1ccc(NC(=O)c2cc3c([nH]c2=O)CC(c2ccccc2)CC3=O)cc1 (stereo unspecified)	.	-4%[46.1 µM]	5%	.	1.4%	.	0%	.
Cc1ccc(-c2cc(C(F)F)n3ncc(C(=O)N4CCCc5ccccc54)c3n2)cc1	?	2%	19%	-6%	-9.7%	2%	-17%	15%
COc1ccc(-c2cnc(N)nc2-c2ccc(OC)cc2O)cc1	-21%	-1%	-26%	-17%	-8.3%	3%	?	44%
CCOC(=O)N1CCN(C(=O)c2ccc3c(c2)N(Cc2ccc(C)cc2)CCS3)CC1	?	-19%	?	10%	-15%	-15%	-7%	0%
O=C(NCCCN1CCOCC1)C(=O)NCC1OCCN1S(=O)(=O)c1cc(F)ccc1F (stereo unspecified)	14%	-3%	.	9%	.	-6%	-25%	-13%
CCCCCCn1c(CN2CCC(C)CC2)nc2c1c(=O)n(C)c(=O)n2C	-17%	?	10%	-9%	-1.6%	5%	.	3%
O=C(O)CCn1cc(C=C2C(=O)NC(=S)NC2=O)c(-c2cc3ccccc3oc2=O)n1	-12%[46.1 µM]	-4%[46.1 µM]	.	2%	.	0%	-7%	-8%
CCCCCOC(=O)CSc1ncnc2c1sc1nc(N3CCOCC3)c3c(c12)CCCC3	-11%[46.1 µM]	4%[46.1 µM]	11%	.	-0.7%	.	10%	.

Some entries already given, reduced to SARS PLP yeast and RE007 growth inh.
compound	SARS PLP yeast	RE007 growth inh
CCOC(=O)N1CCN(C(=O)c2ccc3c(c2)N(Cc2ccc(C)cc2)CCS3)CC1	-15%	0%
O=C(NCCCN1CCOCC1)C(=O)NCC1OCCN1S(=O)(=O)c1cc(F)ccc1F (stereo unspecified)	-6%	-13%

The list goes on.
SMILES	MARV entry inh	LASV entry inh	Cruzain noTriton	NS1 inh	Cruzain inh Det	SARS PLP yeast	2A StopGo	RE007 growth inh
Cc1ccc(NC(=O)N2CCc3cc(S(=O)(=O)N4CCC(C)CC4)ccc32)cc1	25%[46.1 µM]	?	3%	.	4.6%	.	-12%	.
c1ccc(-c2ccc3c(c2)NCCN3)cc1	.	.	.	-58%	.	-2%	38%[activator]	0%
COc1ccc(CCNC(=O)c2cc(C)oc2C)cc1OC	0%[46.1 µM]	-10%	.	?	.	-1%	13%	10%
Cc1ccc2cc(CN(CCCN3CCOCC3)C(=O)NC3CCCCC3)c(=O)[nH]c2c1C	?	18%	9%	-3%	-2.7%	-1%	22%	-9%
O=C(/C=N/O)NCc1cccnc1	-3%	2%	-7%	4%	7.6%	7%	.	-16%
COc1cc(/C=N/N2C(=O)CSC2=S)ccc1O	11%	14%	-17%	5%	-8.6%	16%[6.58 µM]	0%	1%
COc1ccc(CCC(=O)Nc2ccc(N3CCOCC3)cc2)cc1	?	1%	-1%	-11%	3.2%	-6%	4%	8%
Cc1nc2cc(-c3ccc(Cl)cc3)nn2c(C)c1CCC(=O)N1CCN(c2ccccc2)CC1	4%[46.1 µM]	5%[46.1 µM]	-3%	.	3.1%	.	13%	.
COc1ccccc1-c1nnc2n(CCc3ccccc3)c(=O)c3ccccc3n12	8%[46.1 µM]	-13%[46.1 µM]	0%	.	-5.1%	.	?	.
COc1ccc(NC(=O)CSc2nc3sc(C)c(C)c3c(=O)n2Cc2ccco2)cc1	?	12%[14.3 µM]	-15%	13%	1.9%	1%	0%	7%
CCOC(=O)c1c(C)[nH]c(C(=O)Nc2ccc(C)c(Cl)c2)c1C	7%	6%	-8%	-3%	-5.7%	6%	.	.
CCCNC(=O)Nc1ccc(NC(C)=O)cc1	.	.	.	0%	.	2%	1%	-1%
COc1cc(OC)c(OC)cc1CNCCNC(=O)c1nonc1N	8%	-10%	1%	-14%	5.1%	-2%	13%	-19%
Cc1ccc2c(c1)CCCN2C(=O)c1cccs1	8%	-16%[14.3 µM]	-2%	-25%	-0.3%	-19%	7%	-1%
Cc1ccc2c(=O)cc(C(=O)Nc3c(C)cccc3C)oc2c1	-10%[46.1 µM]	-4%[46.1 µM]	-17%	.	-4.7%	.	0%	.
CCC(C)NC(=O)C1CCN(S(=O)(=O)c2cccs2)CC1 (stereo unspecified)	-12%[46.1 µM]	?	1%	-7%	-6.5%	-3%	-1%	8%
Cc1nc2ccccn2c1-c1csc(NCc2ccco2)n1	-15%	?	-8%	-41%	0.3%	-4%	?	-6%
COc1ccc(CNC(=O)CCCn2c(=S)[nH]c3cc4c(cc3c2=O)OCO4)cc1	0%[46.1 µM]	-19%[46.1 µM]	.	-12%	.	3%	0%	13%
CCOc1ccc(C(=O)Nc2ccc3nc(SCC(=O)N4CCOCC4)sc3c2)cc1	-2%[46.1 µM]	16%[46.1 µM]	?	.	0.0%	.	?	.
O=C(NCCNS(=O)(=O)c1ccccc1)c1ccc([N+](=O)[O-])cc1	.	.	.	25%	.	2%	-7%	14%
COc1ccc(C(C#N)=Cc2ccc(NC(C)=O)cc2)cc1	14%[46.1 µM]	?	.	.	.	.	31%[activator]	11%
COc1ccc(OCC(=O)Nc2c(C)ccc3nsnc23)cc1	-5%	1%	.	-1%	.	-5%	-1%	?
CCOc1ccc2oc(C(=O)Nc3cc(C)ccn3)c(C)c2c1	?	?	.	.	.	-1%	-16%	-29%
O=C(c1cc([N+](=O)[O-])ccc1N1CCNCC1)N1CCOCC1	1%	-13%	-6%	-4%	-3.3%	5%	-5%	.
Cc1cccc(CCNC(=O)c2cccc3c2C(=O)N(C2CCCCC2)C3)c1	?	?	.	-68%	.	22%	-22%	10%
CSc1ccccc1-c1nc(-c2ccncc2)no1	?	?	.	-39%	.	-2%	57%[activator]	-5%
Cc1ccccc1OCC(=O)N1N=C(c2cccnc2)CC1(O)C(F)(F)F (stereo unspecified)	11%	-8%	13%	-8%	-0.8%	-23%	-23%	6%
Cc1cccc(OCCC(=O)Nc2ccc(F)c(Cl)c2)c1	?	-4%	-13%	-48%	-5.1%	-53%	-13%	?

Copied from the list.
RE007 growth inh with COc1ccc(CCNC(=O)c2cc(C)oc2C)cc1OC is entered as 10%
2A StopGo with Cc1ccc2c(c1)CCCN2C(=O)c1cccs1 is entered as 7%
SARS PLP yeast with CCOc1ccc2oc(C(=O)Nc3cc(C)ccn3)c(C)c2c1 is entered as -1%

Record cards, as listed above.
O=C(NCCCN1CCOCC1)C(=O)NCC1OCCN1S(=O)(=O)c1cc(F)ccc1F (stereo unspecified) as listed: MARV entry inh: 14%; LASV entry inh: -3%; Cruzain noTriton: .; NS1 inh: 9%; Cruzain inh Det: .; SARS PLP yeast: -6%; 2A StopGo: -25%; RE007 growth inh: -13%
O=C(CSCc1ccc(Br)cc1)N1CCCC1 as listed: MARV entry inh: .; LASV entry inh: .; Cruzain noTriton: .; NS1 inh: 2%; Cruzain inh Det: .; SARS PLP yeast: 14%; 2A StopGo: 27%; RE007 growth inh: -3%
